High-throughput results: PubChem, National Center for Advancing Translational Sciences (NCATS)
Rango dissoc inh: inhibition of RanGTP-driven Rango-importin beta dissociation | Biochemical FRET Rango-importin beta, RanGTP-induced dissociation | Potency, µM (top dose mostly 46.1 µM), for the others: at the highest dose activity change, negative = inhibition | 0.071% of 340,000 active | AID 540253; active means falling FRET ratio curve, often poorly fitted, with flat reads before Ran was added; inconclusive means other falling curves, or compound fluorescence or quenching; inactive means flat or rising ratio curve;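 further: potency means the concentration at half of the fitted maximal effect; % of control where 0% means no effect; nearly all actives have a fitted effect of over 45% in size; -100% = wells without RanGTP and RCC1; the record marks most hits as doubtful in a second field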
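Rango/importin beta premix (0.1/0.25 uM final), PBS + 1 mM DTT + 0.02% Tween-20 + 0.1% BSA; cpd 5 min RT; FRET pre-read; + RanGTP-RCC1 (0.6 uM Ran, 2 mM GTP, 0.2 uM RCC1); 45 min RT; FRET post-read, ex 430, em 486/530 nm.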
GLA inh pH 4.5: alpha-galactosidase A (human) inhibition, pH 4.5; purified enzyme, 4-MU-alpha-Gal fluorescence, pH 4.5; activity change, negative = inhibition, % at 105 µM; AID 1467; P06280; 230,000 tested, under 10 active; inconclusive = small, poorly fitted or top-dose-only inhibition, or a rising curve; inactive = flat fitted curve, though single readings scatter; no compound was filed as active;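 further: 0% = full activity with enzyme and -100% = basal without enzyme; dose as in the result columns while the protocol names 77 µM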
Rango complex inh: Rango-importin beta binding inhibition. Q14974. Potency, µM (series often up to 92.2 µM), for the others: at the highest dose inhibition of complex formation. 0.031% of 340,000 active. Rango CFP/YFP FRET sensor + importin beta, 45 min. AID 540263; active = rising FRET ratio curve, often small or poorly fitted; inconclusive = mostly compound fluorescence or quenching in the first reads; inactive = flat curves in all reads;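 further: potency means the concentration at half of the fitted maximal effect; 0% = DMSO wells and 100% = buffer wells lacking importin beta; nearly all actives have a fitted effect of over 15% in size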
Target sequence (Q14974 whole entry, looked up): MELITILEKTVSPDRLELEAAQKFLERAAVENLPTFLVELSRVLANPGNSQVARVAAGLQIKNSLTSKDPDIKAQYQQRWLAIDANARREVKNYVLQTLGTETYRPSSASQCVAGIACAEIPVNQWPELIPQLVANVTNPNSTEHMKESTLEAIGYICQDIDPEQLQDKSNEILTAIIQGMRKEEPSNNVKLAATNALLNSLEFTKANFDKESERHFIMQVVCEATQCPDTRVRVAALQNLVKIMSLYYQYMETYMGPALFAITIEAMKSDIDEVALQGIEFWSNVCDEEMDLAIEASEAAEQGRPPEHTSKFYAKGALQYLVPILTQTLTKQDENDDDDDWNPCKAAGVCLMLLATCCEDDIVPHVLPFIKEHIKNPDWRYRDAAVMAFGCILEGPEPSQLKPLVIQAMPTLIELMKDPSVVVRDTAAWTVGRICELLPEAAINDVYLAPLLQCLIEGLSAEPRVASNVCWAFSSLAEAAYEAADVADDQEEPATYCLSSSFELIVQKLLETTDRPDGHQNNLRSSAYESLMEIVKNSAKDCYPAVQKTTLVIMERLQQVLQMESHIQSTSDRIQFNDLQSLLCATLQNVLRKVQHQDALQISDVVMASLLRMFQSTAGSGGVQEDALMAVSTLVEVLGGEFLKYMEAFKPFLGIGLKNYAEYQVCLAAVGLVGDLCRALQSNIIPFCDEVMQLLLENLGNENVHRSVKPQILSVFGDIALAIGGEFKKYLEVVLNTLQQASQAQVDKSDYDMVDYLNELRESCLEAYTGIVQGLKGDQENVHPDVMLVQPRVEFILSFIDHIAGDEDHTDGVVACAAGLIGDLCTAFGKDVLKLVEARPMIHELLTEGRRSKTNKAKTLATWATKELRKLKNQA
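FRET biosensor Rango (snurportin 1 IBB between N-terminal EYFP and C-terminal Cerulean), 50 nM in PBS/1 mM DTT/0.02% Tween-20/0.1% BSA, preincubated 5 min RT with compound; 0.125 microM importin beta added, 45 min RT, CFP/YFP FRET ratio read.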
miR-21 reporter: miR-21 reporter, rising signal | 340,000 tested, under 10 active | Potency, µM (series often up to 38.3 µM), for inactives: at the highest dose reporter change, positive = more light | HeLa miR-21 FLuc reporter, luciferase, 48 h; active = well fitted rising curve with a large enough effect; inconclusive = small, poorly fitted or top-dose-only effect; inactive = no such curve, though single readings can be large or run the other way;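 further: % of control where 0% means no effect; miR-21 action dims this reporter so a rising signal means less miR-21 action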
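Luminescence from a firefly luciferase reporter carrying a miR-21 binding site downstream, stably expressed under a CMV promoter in HeLa cells that make miR-21 endogenously, reports miRNA modulation after 48 h compound exposure up to approximately 40uM final.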
Active calls of the source: *; u = inconclusive; x = not tested or not shown; & = joins results of further samples; [ ] = remark or other dose.

Molecule	Rango dissoc inh	GLA inh pH 4.5	Rango complex inh	miR-21 reporter
COc1cccc(NC(=O)C2(S(=O)(=O)c3ccc(Cl)cc3)CC2)c1	u	-2	3.2%	-2%
O=C(NN1C(=O)C2C3C=CC(C4CC34)C2C1=O)c1ccc(Cl)cc1 (stereo not given)	-12%	-25	6.6%	-2%
COc1cc(NC(=O)c2cccs2)c(C(=O)OCC(=O)c2cc(C)n(-c3ccc(F)cc3)c2C)cc1OC	-12%	-4	0.1%	-16%
C=CCCCCc1nc2ccccc2c(=O)n1N	2%	3	-0.1%	-3%
COc1ccc(CN(C)C(=O)Cn2ccsc2=N)cc1OC	0%	x	-2.9%	0%
N#Cc1ccc(/C=C\c2nccc3c2[nH]c2ccccc23)cc1	u	-7	u	5%
CC(=O)c1c(C)[n+]([O-])c2ccc3c(non3O)c12	2%	2	5.6%	1%
COc1ccccc1C(=O)NCC(=O)N/N=C/c1ccc([N+](=O)[O-])cc1	0%	-13	0.8%	-2%
CCOC(=O)C1=C(c2ccccc2)NC(=O)NC1c1cc(Br)c(O)c(OC)c1 (stereo not given)	1%	-2	-3.0%	-3%
C[C@@H]1Cc2c(O)c(O)cc(O)c2C(=O)O1	-8%	3	u	4%
CCOC(=O)c1sc2nc(CSc3ccccc3)nc(NCCN(C)C)c2c1C	-5%	-2	0.2%	-16%
N#Cc1nc(Cc2ccccc2)oc1NCCc1ccccc1	-4%	-2	-2.1%	-57%
Cc1cc(C)n2nc(C(=O)OCC(=O)N(C)Cc3ccccc3)nc2n1	10%	x	2.1%	x
Cc1ccc2nc(NC(=O)C3CCN(S(=O)(=O)c4cccc5nsnc45)CC3)sc2c1	1%	3	3.0%	13%
COCCn1c(C(C)C)nc2oc3ccccc3c(=O)c2c1=O	-17%	-14	-0.8%	-4%
N#Cc1cnc2nc(SCc3ccccc3)nn2c1	-21%	x	u	-57%
CN1CCN(C(=O)CSc2nc(-c3ccncc3)ccc2C#N)CC1	-7%	2	-3.4%	-10%
Cn1c(=O)c2c(nc(N3CCOCC3)n2CCCNC2=NCCC2)n(C)c1=O	-6%	-15	-0.1%	-2%
C=CCc1cc(Cl)ccc1OCCOCCNCCOC	1%	8	3.7%	-8%
Cc1ccc(NC(=O)CN(C)C(=O)C(C)N2CCN(Cc3ccccc3C)CC2)cc1 (stereo not given)	2%	x	u	x
CCOc1ccc(NC(=O)[C@@H](NC(=O)OCc2ccccc2)[C@@H](C)CC)cc1	9%	5	-0.1%	2%
COc1ccc(NC(C)=O)cc1NC(=O)CCn1c(=O)sc2ccccc21	4%	-2	-0.2%	-3%
COc1ccc(Br)cc1CN1C(=O)NC2(CCCCCC2)C1=O	-6%	x	0.7%	-17%
COc1ccc(-n2cc(-c3ccccc3)c3c(N4CCOCC4)ncnc32)cc1	-13%	0[21.1 µM]	-1.4%	16%
CCOc1nonc1C(=N)/C(C(C)=O)=C(\C)O	-3%	2	0.1%	-21%
Nc1c2c(nc3c1CCCC3)CCCC2 (tested in a mixture with another compound)	-2%	x	-0.3%	-9%
CCn1c(=O)c(CCC(=O)N2CCOCC2)c(C)c2c(C)nn(-c3ccccc3)c21	-6%	x	-0.1%	-7%
Cc1c(-c2ccnc3cc(C(=O)O)nn23)cnn1C	-5%	14	-1.9%	2%
CC1CCCCN1C(=O)c1cc(-c2ccc(Cl)c(Cl)c2)on1 (stereo not given)	5%	-5	5.9%	-43%
O=C(Cc1c(O)c2ccccc2[nH]c1=O)NC1CCCCCC1	11%	-4	-0.3%	-10%
CCOc1ccc(CN2CCSCC2)cc1	-13%	x	-1.6%	-7%
Cc1ccc(C=Nc2ccccc2C(N)=O)cc1	-5%	1	0.6%	-9%
CN(c1ccccc1)S(=O)(=O)c1ccc(C(=O)Nc2nnc(-c3ccc(F)cc3)o2)cc1	u	-3	0.6%	-5%
Cc1ccc(S(=O)(=O)NCCC(=O)Nc2cccc(Cl)c2)cc1	2%	6	6.8%	-9%
COc1ccc(C)cc1S(=O)(=O)N(CC(=O)N1CCOCC1)c1cc(C)cc(C)c1	-3%	x	-0.9%	-4%
Cc1ccc(CNC(=O)c2csc3c2CCCCC3)cc1	6%	1	-0.9%	2%
COc1cccc(C(=O)Nc2ccc(C(=O)c3ccccc3)cc2)c1	-15%	x	-2.0%	6%
Cc1ccc(OCc2ccc(C(=O)NN)o2)cc1C	-7%	6	-2.2%	-33%
COc1ccc(-c2cc(C(=O)N3CCN(c4ncccn4)CC3)c3ccccc3n2)cc1OC	-1%	x	5.8%	x
OCC1CCCCN1C(=S)Nc1ccc(Cl)cc1Cl (stereo not given)	-11%	4	-0.2%	-23%
O=[N+]([O-])c1cccnc1N1CCC(c2cc(-c3cccc(C(F)(F)F)c3)n[nH]2)CC1	-10%	-9	2.8%	18%
CN1CCN(CCc2nc3cc(NC(=O)COc4ccccc4)ccc3n2C)CC1	-1%	11	-0.8%	-10%
COc1ccc(C)cc1NC(=O)CNC(c1ccccc1)c1ccc(C)cc1 (stereo not given)	4%	x	-1.1%	24%
COC(=O)CCCNC(=O)c1ccc(OS(=O)(=O)c2cc([N+](=O)[O-])ccc2C)cc1	-22%	x	-2.4%	x
COc1ccc(-c2nnc(SCC(=O)Nc3ccc(C)cc3)n2C)cc1	0%	0	0.0%	0%

Single values from the list:
OCC1CCCCN1C(=S)Nc1ccc(Cl)cc1Cl (stereo not given) @ Rango complex inh = -0.2%
COC(=O)CCCNC(=O)c1ccc(OS(=O)(=O)c2cc([N+](=O)[O-])ccc2C)cc1 @ Rango complex inh = -2.4%

Continued.
Molecule	Rango dissoc inh	GLA inh pH 4.5	Rango complex inh	miR-21 reporter
O=C(NCc1ccccc1)C(Cc1ccccc1)N1C(=O)C2C3CCC(C3)C2C1=O (stereo not given)	-10%	-5	-0.2%	1%
CCCn1c(=O)c2c(nc3n2CCCN3Cc2ccccc2)n(C)c1=O	15%	x	-0.1%	7%
O=C(C1CCC(=O)N(C2CC2)C1)N1CCC(Oc2cccc(F)c2)CC1 (stereo not given)	22%	x	1.0%	0%
COCCNc1c(-c2ccc(OC)c(OC)c2)nc2ccc(Cl)cn12	-12%	-2	u	11%
COc1ccc(C(=O)C2CCCN(Cc3cc(Cl)ccc3O)C2)c(OC)c1 (stereo not given)	0%	x	-14%	26%
CC(=O)N1CCN2C(=O)C1CCCC(=O)c1cc(C3CCCCC3)ccc12 (stereo not given)	9%	2	2.5%	-2%
COc1cc(Cl)ccc1OCc1cc(C(=O)N(C)Cc2nnc(C)o2)no1	19%	x	-0.4%	-40%
Cc1ccc(NS(=O)(=O)c2ccc(-c3ccc(=O)[nH]n3)o2)cc1Cl	16%	x	0.7%	-43%
Cc1nonc1NC(=O)CSc1nc(C2CCCCC2)nc2ccccc12	8%	-5	0.4%	16%
CC1(C)CC(=O)C=C(Nc2ccc(C(=O)O)cc2)C1	4%	5	-2.7%	-2%
O=C(c1cccc([N+](=O)[O-])c1)N1CCCC(C(=O)N2CCN(c3ccccc3)CC2)C1 (stereo not given)	-25%	x	1.8%	1%
COCCNC(=S)N1CCC(NC(=O)Nc2ccc(C)cc2)CC1	19%	-2	-2.7%	0%
CCc1nnc(NC(=O)C2CCCN2C(=O)Nc2ccc(Cl)cc2)s1 (stereo not given)	6%	x	1.6%	-5%
COc1cc(C(=O)NCCC2=CCCCC2)ccc1OCc1c(C)noc1C	-13%	x	4.0%	x
Cn1c(COc2ccc(Cl)cc2)nnc1SCC(=O)NC1CC1	0%	x	-2.7%	x
COc1ccccc1NS(=O)(=O)c1cc(NC(=O)c2ccc3c(c2)OCCO3)ccc1C	-1%	-9	-0.4%	u
O=C(NCCCCNC(=O)c1ccc(Cl)s1)c1ccc(Cl)s1	-6%	4	1.3%	-4%
O=C(OCC(=O)N1CCCc2ccccc21)c1ccc(F)c(S(=O)(=O)N2CCOCC2)c1	-8%	x	0.7%	x
N#CC1(C#N)OC12CCS(=O)(=O)c1ccccc12 (stereo not given)	-10%	x	-5.3%	x
CSc1nnc2c(n1)OC(C)N(C(=O)c1ccccc1)c1ccccc1-2 (stereo not given)	-12%	0	0.8%	-3%
Nc1nc(SCC(=O)c2ccc(Cl)cc2)c2ncn(C3OC(CO)C(O)C3O)c2n1 (stereo not given)	-28%	x	u	x
Cc1ccc(S(=O)(=O)C2C(=O)N(C)C3(C)CC2c2ccccc2O3)cc1C (stereo not given)	-13%	1	-4.0%	-7%
Cc1ccc(-c2ccc(C(=O)NCc3ccc(Cl)cc3)o2)c2ccccc12	-9%	-7	1.1%	-2%
COc1cccc(-c2nn(-c3ccccc3)cc2CO)c1	-23%	7	-2.8%	-45%
CCc1cc(=O)oc2cc(C)cc(OC(C)C(=O)NCc3ccccn3)c12 (stereo not given)	-4%	x	0.1%	-4%
Cc1ccccc1C(=O)c1cccn1CC(=O)NCc1ccc(Cl)cc1	3%	0	1.0%	-19%&-24%
O=C(Nc1ccccc1N1CCOCC1)c1ccc2ccccc2c1	8%	x	-0.4%	-19%
COc1ccc(NC(=O)C2CCCN(c3c4c(nc5ncnn35)CCC4)C2)cc1 (stereo not given)	1%	-12	-2.3%	0%
COc1ccc(C(C(=O)NCc2ccccc2)N(C(=O)c2snc(C(N)=O)c2N)c2ccccc2OC)cc1OC (stereo not given)	-18%	x	4.9%	-4%
O=C(Cc1ccc(NC(=O)C2CCN(C(=O)C3CCCC3)CC2)cc1)Nc1ccc(C(=O)N2CCOCC2)cc1	-1%	x	3.0%	x
CC[C@]12C(=O)N(C)C[C@H]([C@@H]3C(=O)N(Cc4ccccc4)C(=O)[C@@H]31)N2C(=O)c1ccc(F)cc1	-13%	x	-1.9%	x
O=C(COC(=O)c1ccccc1NCCO)Nc1ccc(S(=O)(=O)NC2=NCCCCC2)cc1	-11%	x	0.3%	x
CCN(CC(=O)Nc1cc(Cl)ccc1C)C(=O)CCc1nc2ccccc2c(=O)[nH]1	-1%	x	-4.8%	x
Nc1ncnc2c1ncn2[C@@H]1O[C@H](CNS(=O)(=O)CCCCl)[C@@H](O)[C@H]1O	-14%	x	-0.5%	x
COc1ccc(C(=O)O)c(O)c1	0%	x	-0.1%	x
COc1ccc(NC(=O)Nc2ccc3c(c2)C(=O)N([C@H](C)CO)C[C@H](C)[C@@H](CN(C)C(=O)NC(C)C)O3)cc1	10%	x	2.0%	x
Cc1ccc(C(=O)Nc2ccc(N3CCOCC3)cc2N2CCOCC2)cc1	u	x	-0.1%	-1%
CC(C)c1ccc(NC(=S)NC2CCCCCC2)cc1	-8%	4	0.2%	-58%
CC(C)[C@H](NC(=O)[C@H](Cc1ccccc1)n1c(=O)[nH]c2ccccc2c1=O)C(=O)N1CCC[C@H]1C(=O)O	-6%	x	0.5%	1%
Cc1ccccc1-c1nn(-c2ccccc2)cc1C(=O)NCC(c1ccco1)N1CCCC1 (stereo not given)	-9%	x	5.2%	x
Cc1cc(C)n2nc(SC(C)C(=O)N3CCOCC3)nc2n1 (stereo not given)	-4%	x	2.3%	x
CCNC(=O)c1cc2c(=O)n3cccc(C)c3nc2n(Cc2ccc(C)cc2)c1=N	u	-1	u	-7%
CCCc1cc(=O)[nH]c(SCC(=O)Nc2ccc(OCc3ccccc3)cc2)n1	3%	x	1.1%	x
O=C(C[n+]1ccccc1)N/N=C/c1ccc(O)cc1	1%	-10	-0.9%	0%
Cc1cc(=O)n2nc(N3CCCC(C(=O)NCc4ccccc4Br)C3)sc2n1 (stereo not given)	-2%	x	0.9%	-11%

Some of these compounds in order of their number in Rango dissoc inh, largest number first:
Molecule	Rango dissoc inh	GLA inh pH 4.5	Rango complex inh	miR-21 reporter
Cc1cc(=O)n2nc(N3CCCC(C(=O)NCc4ccccc4Br)C3)sc2n1 (stereo not given)	-2%	x	0.9%	-11%
CC(C)c1ccc(NC(=S)NC2CCCCCC2)cc1	-8%	4	0.2%	-58%
Nc1ncnc2c1ncn2[C@@H]1O[C@H](CNS(=O)(=O)CCCCl)[C@@H](O)[C@H]1O	-14%	x	-0.5%	x

Some of the compounds tested, so the mix of outcomes need not match the whole.
